Bioassay records from PubChem.
AF4-AF9 inh: blocks AF4 peptide binding to human AF9. P42568. AlphaScreen, biotin-AF4 peptide binding to FLAG-AF9. inhibition, % at 10 µM. 350,000 compounds, 0.47% hits. AID 651704;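 active means every replicate reaching a set inhibition limit, whatever the replicate mean, cut at about 25% in these data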;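 further: 0% = plate neutral control median and 100% = total signal loss; the record names both 10 and 1 µM as test concentration; the first replicate is given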
Target sequence (P42568 whole entry, looked up): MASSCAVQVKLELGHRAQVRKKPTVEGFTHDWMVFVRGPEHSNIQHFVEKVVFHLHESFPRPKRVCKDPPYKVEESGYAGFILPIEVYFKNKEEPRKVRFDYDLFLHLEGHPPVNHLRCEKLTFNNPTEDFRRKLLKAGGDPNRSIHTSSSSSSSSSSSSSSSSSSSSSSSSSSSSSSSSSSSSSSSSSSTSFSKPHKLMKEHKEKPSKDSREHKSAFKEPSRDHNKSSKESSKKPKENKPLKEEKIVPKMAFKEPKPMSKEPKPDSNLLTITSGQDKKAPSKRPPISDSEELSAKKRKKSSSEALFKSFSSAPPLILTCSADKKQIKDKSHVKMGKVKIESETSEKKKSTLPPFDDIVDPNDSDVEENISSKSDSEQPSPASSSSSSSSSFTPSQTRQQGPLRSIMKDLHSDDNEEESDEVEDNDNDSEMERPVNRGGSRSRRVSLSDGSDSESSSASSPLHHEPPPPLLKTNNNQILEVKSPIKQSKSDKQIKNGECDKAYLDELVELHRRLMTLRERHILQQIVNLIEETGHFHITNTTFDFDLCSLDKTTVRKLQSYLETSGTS
FGF22 binding: binders of recombinant human FGF22 by thermal shift | 340,000 compounds, 1.5% hits | calls only at 9.99 µM | Q9HCT0 | SYPRO orange fluorescence; percent of sucrose octasulfate shift, DMSO zero;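 active means melting point raised past a set limit in the mean and every replicate; three in four hits are not shown here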
Target sequence (Q9HCT0 whole entry, looked up): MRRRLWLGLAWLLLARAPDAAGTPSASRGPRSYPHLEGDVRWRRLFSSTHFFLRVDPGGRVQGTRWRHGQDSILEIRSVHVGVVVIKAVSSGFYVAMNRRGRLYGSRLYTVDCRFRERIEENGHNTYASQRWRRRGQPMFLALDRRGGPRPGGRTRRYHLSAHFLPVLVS
* marks the source's active call; other numbers are inactive results; i = inactive; nt = no result given.

Every second line gives: AF4-AF9 inh | FGF22 binding
C[C@H](CO)N1C[C@H](C)[C@@H](CN(C)Cc2ccccc2)Oc2cc(C#CC(C)(C)O)ccc2S1(=O)=O
    2.6 | i
C[C@@H]1CN([C@H](C)CO)C(=O)c2cccc(NC(=O)Nc3ccc(C(F)(F)F)cc3)c2O[C@@H]1CN(C)Cc1ccc(-c2ccccc2)cc1
    -0.4 | i
COc1ccc(NC(=O)Nc2cccc3c2O[C@H](CN(C)S(=O)(=O)c2ccc(C)cc2)[C@H](C)CN([C@H](C)CO)C3=O)cc1
    1.0 | i
OC[C@@H]1[C@@H](c2ccccc2)C2(CN(CC3CC3)C2)N1Cc1cncnc1
    0.7 | i
C[C@@H]1CN([C@H](C)CO)C(=O)c2cc(NC(=O)Cc3cn(C)c4ccccc34)ccc2O[C@@H]1CN(C)C(=O)Nc1cccc2ccccc12
    1.4 | i
C[C@@H]1CN([C@@H](C)CO)C(=O)c2cc(NC(=O)CCCN(C)C)ccc2O[C@@H]1CN(C)Cc1ccc(Cl)c(Cl)c1
    10.8 | i
C[C@@H]1CN([C@@H](C)CO)C(=O)Cc2cc(N(C)C)ccc2O[C@@H]1CN(C)S(=O)(=O)c1cccs1
    1.9 | i
Cc1noc(C)c1NC(=O)N[C@H]1CC[C@H](CC(=O)N2CCCCC2)O[C@@H]1CO
    -1.9 | i
CCCNC(=O)N1C[C@@H]2[C@H](c3ccccc31)[C@@H](CO)N2C(=O)c1ccccc1
    -4.9 | i
CNC[C@@H]1Oc2ccc(NC(=O)Nc3c(C)noc3C)cc2C(=O)N([C@@H](C)CO)C[C@@H]1C
    -2.2 | i
Cc1noc(C)c1NC(=O)Nc1ccc2c(c1)C(=O)N([C@@H](C)CO)C[C@H](C)[C@@H](CN(C)S(C)(=O)=O)O2
    -1.4 | i
Cc1ccc(-c2ccc3c(c2)O[C@@H](CN(C)C(=O)C2CC2)[C@@H](C)CN([C@H](C)CO)S3(=O)=O)cc1
    0.6 | i
C[C@H]1CN([C@@H](C)CO)S(=O)(=O)c2ccc(C#Cc3ccc(F)cc3)cc2O[C@H]1CN(C)S(=O)(=O)c1cn(C)cn1
    5.0 | i
COc1ccccc1CNC(=O)C[C@H]1C[C@H]2c3cc(NS(C)(=O)=O)ccc3O[C@H]2[C@H](CO)O1
    -1.5 | i
CCCC#Cc1ccc([C@H]2[C@@H](CO)N3CCCCN(S(=O)(=O)CC)C[C@@H]23)cc1
    3.8 | i
CCCC#Cc1ccc2c(c1)O[C@@H](CN(C)S(C)(=O)=O)[C@H](C)CN([C@H](C)CO)S2(=O)=O
    1.5 | i
C[C@@H]1CN([C@H](C)CO)S(=O)(=O)c2ccc(C#CC3CC3)cc2O[C@H]1CN(C)C
    -3.7 | i
O=C(C[C@@H]1CC[C@@H]2[C@H](COC[C@H](O)CN2Cc2ccc(Cl)cc2)O1)NCc1ccccc1Cl
    1.5 | i
C[C@@H]1CN([C@H](C)CO)C(=O)c2cccc(NC(=O)Nc3ccccc3)c2O[C@H]1CN(C)Cc1ccc(Oc2ccccc2)cc1
    2.1 | i
COc1ccc(S(=O)(=O)Nc2cccc3c2O[C@H](CN(C)C(=O)Nc2ccccc2)[C@@H](C)CN([C@@H](C)CO)C3=O)cc1
    -0.2 | i
CS(=O)(=O)Nc1ccc2c(c1)[C@@H]1C[C@@H](CC(=O)NCCN3CCCCC3)O[C@H](CO)[C@@H]1O2
    -0.1 | i
COc1ccc(-c2cnc3c(c2)C(=O)N([C@H](C)CO)C[C@@H](C)[C@H](CN(C)C(=O)C2CCCCC2)O3)cc1
    -2.0 | i
C/C=C/c1cnc2c(c1)C(=O)N([C@H](C)CO)C[C@H](C)[C@@H](CN(C)C(=O)Nc1ccc(F)cc1)O2
    -1.8 | i
C[C@@H]1CCCCO[C@H](CN(C)C(=O)Nc2ccc(C(F)(F)F)cc2)[C@@H](C)CN([C@@H](C)CO)C(=O)c2cc(NC(=O)Nc3cccc4ccccc34)ccc2O1
    -3.7 | i
C[C@@H]1CN([C@@H](C)CO)C(=O)c2cc(-c3cccc(F)c3)cnc2O[C@H]1CN(C)C(=O)Nc1ccccc1F
    -1.5 | i
C[C@@H]1CN([C@@H](C)CO)C(=O)c2cc(NC(=O)CCN3CCOCC3)ccc2O[C@H]1CN(C)C(=O)Nc1ccc2c(c1)OCO2
    -3.0 | i
Cc1noc(C)c1NC(=O)Nc1ccc2c(c1)C(=O)N([C@@H](C)CO)C[C@H](C)[C@@H](CN(C)C(=O)Nc1ccc3c(c1)OCO3)OCCCC[C@H](C)O2
    4.6 | i
COc1cccc(S(=O)(=O)N2CCCCN3[C@H](CO)[C@H](c4ccc(-c5cccnc5)cc4)[C@@H]3C2)c1
    -5.6 | i
CS(=O)(=O)Nc1ccc2c(c1)[C@@H]1C[C@H](CC(=O)NCc3ccc(Cl)cc3)O[C@@H](CO)[C@@H]1O2
    -3.2 | i
CN1c2ccc(C#Cc3cccnc3)cc2[C@@H]2[C@@H](CCN2C(=O)C2CCCCC2)[C@H]1CO
    -2.0 | i

The final 3 compounds of the section before open the next one:
Every second line gives: AF4-AF9 inh | FGF22 binding
COc1cccc(S(=O)(=O)N2CCCCN3[C@H](CO)[C@H](c4ccc(-c5cccnc5)cc4)[C@@H]3C2)c1
    -5.6 | i
CS(=O)(=O)Nc1ccc2c(c1)[C@@H]1C[C@H](CC(=O)NCc3ccc(Cl)cc3)O[C@@H](CO)[C@@H]1O2
    -3.2 | i
CN1c2ccc(C#Cc3cccnc3)cc2[C@@H]2[C@@H](CCN2C(=O)C2CCCCC2)[C@H]1CO
    -2.0 | i
O=C(N[C@@H]1CC[C@H](CCNS(=O)(=O)c2ccc(Cl)cc2)O[C@@H]1CO)c1cnccn1
    -0.8 | i
CCC(=O)Nc1ccc2c(c1)C(=O)N(C)C[C@@H](OC)[C@H](C)CN(C(=O)CC1CC1)[C@@H](C)CO2
    -1.2 | i
COc1ccc(S(=O)(=O)N(C)C[C@H]2OCCCC[C@@H](C)Oc3ccc(NC(=O)NC(C)C)cc3C(=O)N([C@H](C)CO)C[C@@H]2C)cc1
    -0.8 | i
CO[C@@H]1CN(C)C(=O)c2ccc(NS(C)(=O)=O)cc2OC[C@H](C)N(Cc2cccnc2)C[C@H]1C
    -1.7 | i
CCCC(=O)Nc1ccc2c(c1)OC[C@@H](C)N(Cc1nccs1)C[C@H](C)[C@H](OC)CN(C)C2=O
    3.2 | i
C[C@@H]1CCCCO[C@@H](CN(C)S(=O)(=O)c2ccc(F)cc2)[C@@H](C)CN([C@@H](C)CO)C(=O)c2cc(NC(=O)c3ccncc3)ccc2O1
    0.9 | i
C[C@H](CO)N1C[C@H](C)[C@H](CN(C)S(=O)(=O)c2cccs2)Oc2ccc(NC(=O)Cn3cnnn3)cc2CC1=O
    -3.4 | i
C[C@@H]1CCCCO[C@H](CN(C)CC2CC2)[C@H](C)CN([C@@H](C)CO)C(=O)c2cc(NS(=O)(=O)c3cn(C)cn3)ccc2O1
    -8.1 | i
C[C@H](O)C#Cc1ccc2c(c1)O[C@@H](CN(C)C(=O)C1CCCCC1)[C@H](C)CN([C@@H](C)CO)S2(=O)=O
    1.1 | i
C[C@H]1CN([C@@H](C)CO)C(=O)c2cc(C#CCN(C)C)cnc2O[C@H]1CN(C)Cc1ccccn1
    -2.4 | i
O=C(Cc1ccncc1)NCC[C@@H]1CC[C@H](NC(=O)Nc2ccc(Cl)cc2)[C@@H](CO)O1
    1.3 | i
C[C@@H]1CN([C@H](C)CO)C(=O)c2cc(NC(=O)Cn3cnnn3)ccc2O[C@@H]1CN(C)Cc1ccc(-c2ccccc2)cc1
    5.4 | i
C[C@@H](NC(=O)C[C@H]1C[C@H]2c3cc(NC(=O)c4cccnc4)ccc3O[C@H]2[C@@H](CO)O1)c1ccccc1
    -2.3 | i
COc1ccc2c3c(n(C)c2c1)[C@@H](CO)N(Cc1ccccn1)CC31CCN(Cc2ccccn2)CC1
    -1.1 | i
C[C@H]1CN([C@@H](C)CO)C(=O)c2cc(NC(=O)C3CCCCC3)ccc2O[C@H]1CN(C)C(=O)Nc1ccc(C(F)(F)F)cc1
    5.1 | i
O=C(CN1CCOCC1)N1CC(=O)N2[C@H](CO)[C@@H](c3ccc(/C=C/c4ccccc4)cc3)[C@H]2C1
    -4.9 | i
O=C(C[C@H]1CC[C@@H](NC(=O)NC2CCCCC2)[C@@H](CO)O1)NCc1ccc(F)cc1
    1.4 | i
CC(C)NC(=O)N[C@@H]1CC[C@@H](CC(=O)NCCN2CCCC2)O[C@@H]1CO
    -0.6 | i
CC(C)NC(=O)Nc1ccc2c(c1)CC(=O)N([C@@H](C)CO)C[C@H](C)[C@H](CN(C)C(=O)Nc1ccc(F)cc1)O2
    -3.6 | i
CCOC(=O)C1=CCN(S(=O)(=O)c2ccc(Cl)cc2)C1c1ccc(Cl)c(Cl)c1 (configuration not stated)
    -5.2 | nt
O=C(NC1Cc2ccccc2C1)[C@@H]1[C@@H](CO)[C@@H]2Cn3c(cccc3=O)[C@H]1N2Cc1ccccc1F
    -0.9 | i
CN(C)CC(=O)Nc1ccc2c(c1)[C@H]1C[C@H](CC(=O)NCc3ccccc3)O[C@H](CO)[C@H]1O2
    -1.6 | i
CO[C@@H](CN(C)S(=O)(=O)c1ccc(F)cc1)[C@H](C)CN(Cc1ccccc1Cl)[C@@H](C)CO
    -0.5 | i
C[C@H](NC(=O)C[C@@H]1CC[C@H]2[C@@H](COC[C@H](O)CN2Cc2cc(F)ccc2F)O1)c1ccccc1
    0.5 | i
C[C@@H]1CCCCO[C@H](CN(C)Cc2ccc(C(F)(F)F)cc2)[C@H](C)CN([C@H](C)CO)C(=O)c2cc(NC(=O)NC3CCCCC3)ccc2O1
    -1.4 | i
C[C@@H]1CN([C@H](C)CO)C(=O)c2cc(N(C)C)ccc2O[C@@H](C)CCCCO[C@@H]1CN(C)Cc1ccc(C(F)(F)F)cc1
    34.8* | i
CCNC(=O)[C@H]1[C@H](CO)[C@H]2Cn3c(ccc(C4=CCCCC4)c3=O)[C@H]2N1Cc1ccccc1
    5.8 | i
CC(C)NC(=O)Nc1cccc2c1O[C@@H](CN(C)Cc1ccc(-c3ccccc3)cc1)[C@@H](C)CN([C@H](C)CO)C2=O
    2.1 | i
COc1cccc(S(=O)(=O)N[C@@H]2CC[C@H](CCN)O[C@H]2CO)c1
    -0.2 | i
COCC#Cc1cnc2c(c1)C(=O)N([C@@H](C)CO)C[C@@H](C)[C@H](CN(C)C(=O)Cc1ccccc1)O2
    -3.6 | i
COc1ccc(C(=O)N2C[C@H]3[C@@H](c4ccccc42)[C@@H](CO)N3C(=O)Cc2ccccn2)cc1
    -15.7 | i
C[C@@H]1CCCCO[C@@H](CN(C)CC2CC2)[C@H](C)CN([C@H](C)CO)C(=O)c2cc(NC(=O)Nc3ccc(F)cc3)ccc2O1
    11.1 | i
Cc1ccc(S(=O)(=O)Nc2ccc3c(c2)C(=O)N([C@@H](C)CO)C[C@H](C)[C@H](CN(C)C(=O)NC2CCCCC2)OCCCC[C@H](C)O3)cc1
    -1.9 | i
Cc1noc(C)c1S(=O)(=O)Nc1ccc2c(c1)C(=O)N([C@H](C)CO)C[C@H](C)[C@@H](CN(C)Cc1ccccc1)O2
    1.3 | i
C[C@H]1CN([C@@H](C)CO)C(=O)c2cc(-c3cccc(C#N)c3)cnc2O[C@@H]1CN(C)C(=O)C1CCC1
    -3.1 | i
CCCC(=O)Nc1ccc2c(c1)OC[C@H](C)N(Cc1ccc(F)cc1)C[C@H](C)[C@H](OC)CN(C)C2=O
    0.6 | i
C[C@H](CO)N1C[C@H](C)[C@H](CN(C)S(=O)(=O)c2cn(C)cn2)OCCCC[C@H](C)Oc2ccc(NC(=O)Nc3ccccc3)cc2C1=O
    -2.3 | i
C[C@H](CO)N1C[C@H](C)[C@@H](CN(C)Cc2ccc(Cl)c(Cl)c2)Oc2ccc(NS(=O)(=O)c3cn(C)cn3)cc2CC1=O
    5.4 | i
CCNC(=O)C[C@H]1CC[C@H]2[C@@H](COc3ccc(NC(=O)Nc4c(C)noc4C)cc3C(=O)N2C)O1
    -0.7 | i
Cc1noc(C)c1S(=O)(=O)N(C)C[C@@H]1Oc2ccc(NC(=O)c3ccncc3)cc2CC(=O)N([C@@H](C)CO)C[C@@H]1C
    -0.6 | i
CNC(=O)C[C@H]1CC[C@@H]2[C@@H](COc3ccc(NC(=O)c4cc(F)cc(F)c4)cc3C(=O)N2C)O1
    -1.3 | i
CNC[C@@H]1Oc2ccc(NC(=O)NC3CCCCC3)cc2C(=O)N([C@H](C)CO)C[C@@H]1C
    -0.9 | i
O=C(NCc1ccc(F)cc1)[C@H]1[C@H](CO)[C@H]2Cn3c(cccc3=O)[C@H]2N1C(=O)C1CC1
    -1.2 | i
COc1cccc(NC(=O)N(C)C[C@H]2Oc3cc(C#Cc4ccccc4)ccc3S(=O)(=O)N([C@H](C)CO)C[C@@H]2C)c1
    -1.2 | i
COc1ccc2c3c(n(C)c2c1)[C@@H](CO)N(Cc1ccccc1F)CC31CCN(C(=O)C2CCCC2)CC1
    -2.8 | i
C[C@H]1CN([C@@H](C)CO)C(=O)c2cc(C#CCN(C)C)cnc2O[C@H]1CN(C)C(=O)Cc1cccnc1
    -0.4 | i

Filtered by structure, the entries above containing two or more sulfur atoms (4)
Every second line gives: AF4-AF9 inh | FGF22 binding
C[C@@H]1CN([C@@H](C)CO)C(=O)Cc2cc(N(C)C)ccc2O[C@@H]1CN(C)S(=O)(=O)c1cccs1
    1.9 | i
C[C@H]1CN([C@@H](C)CO)S(=O)(=O)c2ccc(C#Cc3ccc(F)cc3)cc2O[C@H]1CN(C)S(=O)(=O)c1cn(C)cn1
    5.0 | i
CCCC#Cc1ccc2c(c1)O[C@@H](CN(C)S(C)(=O)=O)[C@H](C)CN([C@H](C)CO)S2(=O)=O
    1.5 | i
C[C@H](CO)N1C[C@H](C)[C@H](CN(C)S(=O)(=O)c2cccs2)Oc2ccc(NC(=O)Cn3cnnn3)cc2CC1=O
    -3.4 | i

A portion of the library; the hit share may differ from the screen's.
